# RecA splice inh = inhibitors of M. tuberculosis RecA intein splicing; 290,000 compounds, 0.75% hits; cell-free RecA intein splicing, fluorescence; inhibition, %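 (about 9 µM by stock and volumes)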; P9WHJ3; AID 2221; in the data active = inhibition above about 30%; inconclusive = no clear call, values can overlap the other calls;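 also: 0% = vehicle wells and 100% = reference inhibitor control wells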
# Target sequence (P9WHJ3 whole entry, looked up, canonical isoform): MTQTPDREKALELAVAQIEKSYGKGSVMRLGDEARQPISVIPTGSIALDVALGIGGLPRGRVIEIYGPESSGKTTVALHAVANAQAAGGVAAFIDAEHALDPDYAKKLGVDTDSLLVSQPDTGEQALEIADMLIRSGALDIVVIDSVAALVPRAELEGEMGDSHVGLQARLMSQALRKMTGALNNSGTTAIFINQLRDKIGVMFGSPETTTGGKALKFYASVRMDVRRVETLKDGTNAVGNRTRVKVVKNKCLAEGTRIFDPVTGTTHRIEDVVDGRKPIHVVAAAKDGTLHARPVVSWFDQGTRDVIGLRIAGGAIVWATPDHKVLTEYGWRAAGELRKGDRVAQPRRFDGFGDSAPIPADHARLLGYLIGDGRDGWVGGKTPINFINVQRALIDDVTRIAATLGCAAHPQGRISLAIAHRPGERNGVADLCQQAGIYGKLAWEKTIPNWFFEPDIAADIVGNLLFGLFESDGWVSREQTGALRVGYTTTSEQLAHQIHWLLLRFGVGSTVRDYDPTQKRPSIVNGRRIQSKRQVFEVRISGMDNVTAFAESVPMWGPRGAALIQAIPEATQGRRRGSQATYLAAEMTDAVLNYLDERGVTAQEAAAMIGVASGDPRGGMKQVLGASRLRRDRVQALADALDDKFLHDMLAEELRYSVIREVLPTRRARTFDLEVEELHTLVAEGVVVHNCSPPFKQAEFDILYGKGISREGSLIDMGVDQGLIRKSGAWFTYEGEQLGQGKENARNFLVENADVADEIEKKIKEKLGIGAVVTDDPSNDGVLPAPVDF
# Arbovirus inh = antivirals against arbovirus infection | arbovirus infection cell-based antiviral screen | inhibition, % at 10 µM | 200,000 compounds, 0.37% hits;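 active = inhibition from about 30%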;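 also: bluetongue infection of BSR cells; cell survival read as ATP light after 72 h; 0% = infected wells without compound and 100% = uninfected wells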
# Mtb betalactam = beta-lactam sensitization of Mtb H37Rv | M. tuberculosis H37Rv growth with meropenem, percent inhibition; hits of this screen are not shown here | inhibition, % at 25 µM | 330,000 compounds, 0.27% hits | AID 434955;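 active = about 74% or more and at least 40 points above the plate without the antibiotic, then above 30% in a dose series; inconclusive = first-round hits that could not be retested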;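 also: growth measured after seven days incubation then overnight dye step; 0% = bacteria only wells and 100% = bacteria with antibiotic; twin plates without the antibiotic show which effects depend on it; some results filed as inactive read as strong as hits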
# Mtb growth = M. tuberculosis H37Rv growth inhibitors, H37Rv strain (AID 1626) | M. tuberculosis H37Rv growth inhibition; higher % means a stronger effect | inhibition, % at 10 µM; hits with a dose series show IC50 in µM | 220,000 compounds, 0.95% hits;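 active = confirmed in a dose series; inconclusive = inhibition above 80% but not taken into the dose series; inactive = below 80% or under 30% at every dose of the series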;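 also: bacteria incubated seven days before Alamar blue readout; 0% = bacteria only wells and 100% = bacteria with antibiotic wells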
# YopH PTP inh = YopH (Yersinia) phosphatase inhibition; inhibition, %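 (about 10 µM by stock and volumes)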; AID 898; 140,000 compounds, 0.16% hits; fluorescence Ex485/Em525;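 active = inhibition of 50% or more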;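 also: controls were vehicle for no effect and minimum signal wells for full effect; inactives centre near -20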
# Arbovirus inh repeat = also measured in Arbovirus inh; calls as there; inhibition, %; measured here: 10K subset replicate screen; many hits read low in the repeat;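 first of two repeat runs on a subset; 0% = infected and 100% = uninfected wells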
# Active calls of the source: *; ? = inconclusive; . = not tested or not shown. An excerpt (hit frequency here may not be typical).
SMILES,RecA splice inh,Arbovirus inh,Mtb betalactam,Mtb growth,YopH PTP inh,others
O=C(/C=C/c1ccccc1Cl)Nc1ccncc1,3.8,-6.6,-2.6,-11.1%,-37.8,
CCC(C)[C@H](NC(=O)NCc1cccc(OC)c1)C(=O)OC (some centres undefined),-2.5,5.8,-7.2,0.1%,-32.0,
CCCn1c(=O)c(C(=O)NCc2ccccc2OC)c(O)c2ccccc21,-0.7,.,0.7,.,.,
CCS(=O)(=O)N1Cc2ccccc2CC1C(=O)NC(C)C12CC3CC(CC(C3)C1)C2 (centres undefined),1.4,3.7,0.5,-4.4%,-19.3,
Cc1ccc(-c2nnc(SCC(=O)CC(=O)Nc3ccccc3)n2-c2ccccc2)cc1,0.7,-6.3,-0.4,-1.8%,6.7,
CC(C)(C)c1ccc(OCC(=O)NNC(=S)NC(=O)c2ccco2)c(Br)c1,3.7,.,93.8,.,.,
N/C(=N/OC(=O)c1ccccc1F)c1nonc1N,0.0,2.4,13.4,1.2%,.,
O=C(O)Cn1c(O)c(C2=c3ccccc3=NC2=O)sc1=O,1.0,.,2.0,.,.,
C[C@H]1CC[C@@]2(O[C@H](CCO)C[C@H](O)[C@H]2O)O1,-1.5,.,-4.7,-9.8%,.,
CC(C)(Cc1ccc(O)cc1)NC(=O)CC(=O)N=Nc1c(O)[nH]c2ccc(Br)cc12,.,-0.6,-7.2,-1.1%,.,
O=C(CCn1c(=O)[nH]c2ccsc2c1=O)NCc1ccc(F)cc1,-0.6,6.7,-0.6,-8.0%,.,
CCOC(=O)c1c(-c2ccccc2)oc2ccc(O)c(CN3CCCC3)c12,7.5,-24.7,100.2,78.6%,16.3,
Cc1ccc(S(=O)(=O)Nc2ccc3c(c2)OCCO3)cc1C,1.5,6.6,-0.4,11.9%,.,
NC(=O)CC(NC(=O)Cc1ccc(Br)cc1)c1ccc(NCc2ccc(F)cc2)c([N+](=O)[O-])c1 (centres undefined),1.4,.,-7.9,-14.5%,.,
CCCCn1c(=O)c(C(=O)NCc2ccccc2)c(O)c2ccccc21,-2.0,.,-3.0,.,.,
O=C(c1ccccc1)N1CCCc2ccccc21,-3.6,-3.5,20.9,.,-36.9,
COc1ccc(/C=C(/NC(=O)c2ccc(OC)c(OC)c2)C(=O)NCCc2c[nH]c3ccccc23)cc1,-0.1,-1.5,-7.6,10.1%,24.9,
Cc1nc(N)c2c(Cc3cccc4ccccc34)nn(C(C)(C)C)c2n1,-0.6,.,-6.2,18.1%,.,
Cc1noc(C)c1COc1ccc(C(=O)OCC(=O)NC2CCCCC2C)cc1 (centres undefined),.,3.5,73.0,1.0%,3.1,
CC(C)N(C)CCOC(=O)/C=C/c1ccccc1,-2.5,0.8,0.2,-0.1%,-17.8,
CCOC(=O)c1ccccc1NC(=O)COC(=O)CCCOc1ccccc1,5.7,.,18.9,.,.,
CCOc1cc(/C=C2/C(=O)NC(=O)N(c3ccc(CC)cc3)C2=O)ccc1OC(=O)c1cccs1,18.1,6.9,98.5,-0.4%,-17.8,
COc1ccc(NC(=S)NC(=O)C2CCCCC2)cc1,0.0,.,1.4,.,.,
CCCCOC(=O)C1CN(c2ccccc2)N=C1C(C)=O (centres undefined),-10.1,-0.7,11.7,-8.9%,.,
C=CCn1c(SCc2c(F)cccc2Cl)nnc1-c1ccco1,.,4.2,0.9,-4.6%,-29.9,
COc1cc(C(=O)NCCC(=O)N2CCCCC2)cc(OC)c1OC,1.4,.,-6.5,.,.,
CC1(C)CC(=O)C2=C(C1)N(c1ccc(Cl)cc1)C(=O)C2(O)C(F)(F)F (centres undefined),1.9,-5.4,-8.1,3.7%,-30.2,
CCC(=O)c1ccc(-c2ccccc2)cc1,-0.8,-1.5,-0.5,9.1%,-18.6,
O=C(Nc1ccc(Cl)cc1)OCCn1nnnc1C(c1ccccc1Cl)N1CCOCC1 (centres undefined),7.9,1.2,-5.8,-1.3%,-20.0,
O=C(Nc1ccccc1)c1ccccc1NS(=O)(=O)c1ccc(Cl)s1,7.4,-24.5,4.4,-3.9%,-12.4,
O=C(NCc1cccnc1)c1cccnc1-c1nc2ccccc2s1,14.6,-3.2,0.9,-1.7%,-13.2,
CCC(C)(C)NC(=O)C(c1ccc(O)cc1)N(Cc1ccco1)C(=O)CCC(=O)Nc1ccccn1 (centres undefined),-0.4,.,-2.4,.,.,
CSc1ccc(S(=O)(=O)NCC(=O)OCC(=O)NCCc2ccccc2)cc1[N+](=O)[O-],2.5,.,-3.2,.,.,
O=C(CCCNc1ccccc1)N/N=C/c1cccs1,-4.7,3.6,-6.7,-8.4%,.,
Cn1c(C(=O)N[C@@H](Cc2ccccc2)C(=O)NCCC(=O)O)cc2cc(Cl)ccc21,1.3,.,9.0,.,.,
COc1ccc(N2CCN(C(=O)COC(=O)c3cccc(S(=O)(=O)Nc4ccccc4OC)c3)CC2)cc1,6.4,.,-18.1,.,.,
CCOc1ccc(NC(=O)CCC(=O)N/N=C2\CCCc3ccccc32)cc1,-2.3,.,44.5,.,.,
COC(=O)c1ccc(N/C=C/C(=O)c2ccccc2)cc1,1.0,.,2.3,.,.,
C=CCn1c(=S)[nH]c2sc3c(c2c1=O)CCC3,1.4,-0.9,.,-3.6%,-2.6,
CCn1c(NCc2cc(Cl)ccc2O)nc2ccccc21,0.4,.,-0.7,9.7%,.,
Cc1cc(OCC(=O)N[C@@H](Cc2ccccc2)C(=O)O)c2c3c(c(=O)oc2c1)CCC3,0.1,.,-10.8,.,.,
CCOC(=O)CN(C(=O)COc1nc(C)cc(C)c1C#N)c1ccc(F)cc1,3.3,.,-1.9,6.3%,.,
CN(CCC#N)C(=S)Nc1ccc(F)cc1,3.4,.,2.2,1.2%,.,
CCN1CCN(C(=O)CN(C)S(=O)(=O)c2ccc(OC)c(C)c2)CC1,-0.5,7.0,-16.6,-2.5%,-24.8,
O=C(NCc1ccncc1)c1ccc(Br)o1,-0.4,13.3,-4.0,-4.1%,-39.9,
N#CCc1c(C#N)c(N)nc(N2CCCC(O)C2)c1C#N (centres undefined),-0.7,6.4,-6.7,6.5%,.,
CSc1nsc(SCC(=O)Nc2cc(C(=O)O)ccc2C)n1,-0.7,.,6.8,.,.,
CCOC(=O)C1CC(=O)c2cc(OC)c(OC)cc2C1 (centres undefined),-0.3,.,3.8,-6.3%,.,
COc1ccc(Cl)cc1NC(=O)CN(C)CC(=O)NC(C)c1ccccc1 (centres undefined),2.4,5.2,13.0,4.9%,.,
COCCCn1c(=O)cc(C)[nH]c1=S,-1.9,.,-9.7,-1.9%,.,
CCOc1ccc(N2CC(C(=O)Nc3c(C)n(C)n(-c4ccccc4)c3=O)CC2=O)cc1 (centres undefined),-2.0,9.0,-7.8,-6.2%,.,
Cc1ccc(NC(=O)CNCC2CCCCC2)cc1S(=O)(=O)N(C)C,0.8,.,-6.9,-8.9%,.,
Cc1cc(C)n(/N=C/c2ccc(C(C)C)cc2)c(=O)c1C#N,-2.0,-5.0,6.8,57.4%,-23.7,
O=C(Cc1ccc(Cl)cc1)N1CCOCC1,-3.9,.,-3.6,.,.,
CC1Cc2ccccc2N1S(=O)(=O)c1ccc2c(c1)n(C)c(=O)c(=O)n2C (centres undefined),0.8,-10.9,-1.8,-7.7%,-25.0,
CN(C)S(=O)(=O)Nc1ccc(Oc2ccccc2)cc1,2.3,-7.3,1.3,3.2%,-21.6,
COc1ccccc1C(=O)Nc1ccc(S(=O)(=O)N2CCCC2)cc1,1.4,-5.4,-2.7,9.6%,-10.9,
O=c1[nH]c(C2CCCN(S(=O)(=O)c3cccc(Cl)c3)C2)nc2c1nnn2Cc1ccc2c(c1)OCCO2 (centres undefined),5.8,.,80.3,.,.,
C=CCn1c(SC(C)C(=O)NCc2ccc3c(c2)OCO3)nc2scc(-c3ccccc3)c2c1=O (centres undefined),-4.8,-8.5,.,1.3%,-19.9,
COc1ccc(C(=O)Nc2cc(Cl)cc(Cl)c2)c(OC)n1,-3.5,4.7,4.1,0.8%,-35.3,

# Additional structures follow.
SMILES,RecA splice inh,Arbovirus inh,Mtb betalactam,Mtb growth,YopH PTP inh,others
CC(=O)c1cc(C#N)c(N2CCN(c3ccccc3)CC2)nc1C,-5.4,.,5.4,.,.,
CCOc1ncccc1C(=O)OCC(=O)Nc1ccc(C(N)=O)cc1,-3.6,.,0.0,.,.,
COc1cc(C(=O)OCC(=O)NCc2ccco2)cc(OC)c1OC,1.8,-0.7,-12.7,-7.0%,-35.1,
Oc1ccc(Nc2nc(-c3ccc(O)cc3)cs2)cc1,33.5*,-4.7,3.4,5.7%,33.3,
COc1ccc(CCNC(=O)Cn2nnc(-c3ccc(OC)c(OC)c3)n2)cc1OC,2.0,4.8,-4.0,-4.0%,.,
CC1=C(/C=N/Nc2ccc([N+](=O)[O-])cc2[N+](=O)[O-])C(C)(C)CCC1,-1.1,-5.3,3.2,-7.9%,-11.0,
COc1cc2c(cc1NC(=O)c1ccc(C)c([N+](=O)[O-])c1)oc1ccccc12,-1.8,-32.9,0.8,?,-23.3,
COc1cccc(C(=O)N2CCC(CCC(=O)Nc3cccc(C)c3)CC2)c1,3.0,.,?,.,.,
Cc1occc1-c1nnc(SCC(=O)Nc2nccs2)n1Cc1ccco1,-1.0,0.0,-7.9,-4.8%,-19.0,
NC(=O)c1cc2ccccc2o/c1=N\NC(=O)c1ccncc1,2.2,-4.6,0.8,2.3%,.,
COC(=O)CSc1cc(SCC(=O)OC)c(C#N)c(SCC(=O)OC)c1,0.0,-5.1,99.4,0.785µM*,-36.3,
O=S(=O)(NCC1CCCO1)c1ccc2oc3ccc(S(=O)(=O)NCC4CCCO4)cc3c2c1 (centres undefined),1.2,8.9,-1.8,-6.7%,-5.1,
O=C(Nc1ccc(C(=O)O)cc1)/C(=C\c1ccccc1)NC(=O)c1ccc(Br)cc1,1.7,.,5.8,.,.,
O=C(CCS(=O)(=O)c1ccccc1)Nc1nc2c(s1)CCCC2,-1.6,1.1,7.2,-0.6%,.,Arbovirus inh repeat=2.1
COc1cc(C(=O)Nc2ccc(Oc3ncnc4sc(-c5ccccc5)cc34)cc2)cc(OC)c1OC,-2.5,3.1,-0.3,-3.2%,-33.4,
COc1ccc(-c2nc3cnccn3c2NC(C)(C)CC(C)(C)C)cc1O,-5.7,9.8,4.3,2.1%,.,
CC(C)(C)OC(=O)NCCC(=O)N/N=C/c1cccc2nccnc12,-1.5,.,-13.4,0.6%,.,
COc1ccc(C(C)(C)C)cc1NC(=O)C1C2C=CC(C2)C1C(=O)O (centres undefined),2.7,2.4,2.4,-5.2%,-34.0,
CC(C)CN(C(=O)C1CCCCC1)C1CCS(=O)(=O)C1 (centres undefined),1.2,.,-14.1,.,.,
COc1cc(/C=C2\SC(=S)N(CCCCC(=O)O)C2=O)ccc1OS(=O)(=O)c1ccc(C)cc1,21.0,.,46.4,.,.,
N#C/C(=N/Nc1ccccc1[N+](=O)[O-])C(N)=S,0.5,.,-7.3,1.2%,.,
Cc1cccc(Oc2ccccc2NC(=O)c2cnccn2)c1,-3.8,0.0,-1.4,8.5%,-21.4,
O=C1NC(=O)C(=CN2CCc3ccccc32)C(=O)N1,17.0,0.0,3.4,-3.2%,-14.6,
O=C(Cc1cccs1)N(Cc1ccco1)C1(C(=O)NC2CCCC2)CCCCC1,6.5,-1.7,1.8,8.7%,-35.0,Arbovirus inh repeat=-4.9
COc1ccc(/C=C2\SC(=S)N(CCCC(=O)Nc3ccccn3)C2=O)cc1OC,1.3,4.6,5.9,7.1%,-3.6,
COc1cccc(C(=O)NC2CCN(CC(=O)Nc3c(C)cc(C)cc3C)CC2)c1,-3.3,4.7,-5.3,-13.2%,.,

# Fetched one by one from above (6):
SMILES,RecA splice inh,Arbovirus inh,Mtb betalactam,Mtb growth,YopH PTP inh,others
Cc1cccc(Oc2ccccc2NC(=O)c2cnccn2)c1,-3.8,0.0,-1.4,8.5%,-21.4,
COc1ccccc1C(=O)Nc1ccc(S(=O)(=O)N2CCCC2)cc1,1.4,-5.4,-2.7,9.6%,-10.9,
CCS(=O)(=O)N1Cc2ccccc2CC1C(=O)NC(C)C12CC3CC(CC(C3)C1)C2 (centres undefined),1.4,3.7,0.5,-4.4%,-19.3,
CCOc1ccc(N2CC(C(=O)Nc3c(C)n(C)n(-c4ccccc4)c3=O)CC2=O)cc1 (centres undefined),-2.0,9.0,-7.8,-6.2%,.,
CN(CCC#N)C(=S)Nc1ccc(F)cc1,3.4,.,2.2,1.2%,.,
COc1ccc(NC(=S)NC(=O)C2CCCCC2)cc1,0.0,.,1.4,.,.,

# Compound activity as filed in PubChem.
